Sfp PPTase inh: Sfp phosphopantetheinyl transferase inhibition | AID 1490 | 310,000 compounds, 3.5% hits | Q9F4F7 | Biochemical Sfp PPTase activity, qHTS | Potency, µM, without a hit: max response, negative = inhibition, actives largely listed as inhibitors; active means well fitted inhibition curve with a large enough effect; inconclusive means small, poorly fitted or top-dose-only effect, or another doubt; inactive means no such curve, though single readings can be large or run the other way;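 further: the enzyme is Sfp with the accession as filed and its product quenches rhodamine fluorescence; potency means the concentration at half of the fitted maximal effect; 0% = enzyme reaction without inhibitor and -100% = no enzyme wells; top concentration of the series not given in the record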
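Compounds were incubated with enzyme (final 15 nM) for 15 min at room temperature before substrate addition started the reaction. Fluorescence at 525 nm excitation, 598 nm emission was recorded immediately and after 30 minutes.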
ClpP mod: qHTS Assay for Activators of ClpP; ATP-dependent Clp protease proteolytic subunit (Bacillus subtilis (strain 168)), P80244; purified B. subtilis ClpP, FRET peptide cleavage, 20 min; Potency, µM (highest dose often 57.5 µM), without a hit: at the top dose activity change, negative = active; 340,000 compounds, 1.9% hits; AID 651965, 2013; active = well fitted falling curve with a large enough effect; inconclusive = small, poorly fitted or top-dose-only effect; inactive = no such curve, though single readings can be large or run the other way; further: potency means the concentration at half of the fitted maximal effect; the source files actives as falling curves though it sought activators and does not explain the sign; nearly all actives have a fitted effect of over 65% in size; many hits overshoot -100%
Target sequence (P80244 whole entry, looked up): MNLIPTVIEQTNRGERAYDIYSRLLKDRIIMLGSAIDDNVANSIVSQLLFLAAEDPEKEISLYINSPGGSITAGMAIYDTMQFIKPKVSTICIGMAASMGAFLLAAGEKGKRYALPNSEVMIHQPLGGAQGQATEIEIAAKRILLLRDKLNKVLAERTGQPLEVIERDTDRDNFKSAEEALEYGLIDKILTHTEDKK
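ClpP 10 microg/mL final, pH 8 Tris/KCl buffer with BSA, glycerol, Tween-20; compound pinned in; FRET-FV substrate; RT 20 min; Ex320/Em430; ΔFRET vs ADEP 5.8 microM, DMSO, no enzyme.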
TRPML1 agonist: human mucolipin-1 channel agonism | TRPML1-expressing cells, Ca2+ dye fluorescence, FDSS; host cell line not named in the record; reference of the full effect not given here | activation, % (test concentration not listed) | 410,000 compounds, 0.12% hits | AID 624414; in the data active = activation above about 50%; inconclusive = about 30% to 50%; inactive = below about 30%; further: 0% is about no effect; the text of the record puts the active cut at 80%
Target sequence (Q9GZU1 whole entry, looked up): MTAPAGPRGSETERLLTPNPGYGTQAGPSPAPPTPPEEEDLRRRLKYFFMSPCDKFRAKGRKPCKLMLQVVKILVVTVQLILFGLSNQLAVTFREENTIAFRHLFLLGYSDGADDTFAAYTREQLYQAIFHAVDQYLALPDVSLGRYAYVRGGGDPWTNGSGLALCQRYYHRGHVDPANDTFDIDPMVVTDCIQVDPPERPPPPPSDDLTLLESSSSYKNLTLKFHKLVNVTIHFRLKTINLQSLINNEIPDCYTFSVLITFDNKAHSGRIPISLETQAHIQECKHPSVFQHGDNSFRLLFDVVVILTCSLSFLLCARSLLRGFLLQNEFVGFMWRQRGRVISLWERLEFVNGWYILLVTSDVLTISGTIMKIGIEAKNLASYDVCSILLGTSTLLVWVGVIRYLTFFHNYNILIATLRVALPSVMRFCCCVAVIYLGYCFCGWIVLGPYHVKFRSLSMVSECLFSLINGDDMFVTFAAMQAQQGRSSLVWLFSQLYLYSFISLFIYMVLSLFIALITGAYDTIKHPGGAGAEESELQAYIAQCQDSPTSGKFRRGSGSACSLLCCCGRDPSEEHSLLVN
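Cells: TRPML1-DL, 1X Tet inducer, ~16 h at 37 degrees C/5% CO2. Dye: ABD Ca8 no-wash + quencher, 45-90 min RT. Read: 10 s baseline, compound add, 110 s agonist phase; 54-4 EC80 (4uM final), 110 s antagonist phase.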
TRPV1 PAM: enhances activation of the human vanilloid receptor TRPV1; Q8NER1; TRPV1-expressing cells, Fluo-8 calcium influx, capsaicin EC20 potentiation; host cell line not named in the record; control for the full effect not named in the record; potentiation, % at 8.33 µM; 320,000 compounds, 0.02% hits; active means potentiation above 80%; inconclusive means 30% to 80%; inactive means below 30%; further: 0% is about no effect
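TRPV1-expressing cells were cultured overnight at 35.5C and loaded with Fluo-8 calcium dye for 40 to 90 min at room temperature. After a 10 s baseline, compound was added and calcium influx was read kinetically for 3 min (ex 480/em 520 nm).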
PINK1 expr mod: changes PINK1 expression; 410,000 compounds, 0.2% hits; Potency, µM (top dose mostly 76.6 µM), without a hit: top-dose activation (PINK1 increase), actives largely listed as activators; AID 624263; PINK1 immunofluorescence, high-content cytometry, 24 h; active = well fitted activation curve with a large enough effect; inconclusive = small, poorly fitted or top-dose-only effect; inactive = flat fitted curve, though single readings scatter; cell line not stated here;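 further: potency means the concentration at half of the fitted maximal effect; % of control where 0% means no effect; nearly all actives have a fitted effect of over 65% in size; a mitochondrial uncoupler was the plate control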
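A stable cell line was treated with compounds at 5 concentrations for 24 hours, with CCCP as control. PINK1 levels and mitochondrial localization were measured by immunofluorescence with mitochondrial, cell and nuclear markers after fixation, read by laser-scanning cytometry.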
Menin-MLL FL inh: displaces fluorescein MLL peptide from human menin; Fluorescence polarization, fluorescein-MLL peptide displacement from menin; FP activity change, % at 61.4 µM; 290,000 tested, under 10 active; inconclusive = falling polarisation curve, or a change in total fluorescence; inactive = total fluorescence flat and polarisation flat or rising; no compound was filed as active; the % refers to the polarisation; negative = inhibition;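 further: % of control where 0% means no effect; inhibitors lower the polarisation; unlabelled MLL peptide was the positive control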
TRPML1 blocker: human mucolipin-1 channel inhibition; AID 624415; activity change, negative = inhibition, % (test concentration not listed); Q9GZU1; 390,000 compounds, 0.02% hits; TRPML1-inducible cells, Ca2+ dye fluorescence, FDSS; active compounds read low; inhibition of EC80 agonist-evoked calcium signal; in the data active means activity change below about -50%; inconclusive means about -30% to -50%; inactive means above about -30%;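 further: stimulus is agonist 54-4 at its EC80 concentration; on the % scale 0 is the no-effect control and ±100 the full control effect; compound concentration not given in the record; the text of the record puts the active cut at -80%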
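Calcium fluorescence in TRPML1-DL cells induced overnight with Tet: a 110 s read after compound pin addition, then a 110 s antagonist read after challenge with 54-4 at 4 uM final (EC80).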
The depositor's hits bear a star; ? = inconclusive; . = not tested or not shown; [ ] = remark or other dose. An unsorted share of the library; about 4.4% have a hit in one of these screens.

Value order: TRPV1 PAM	TRPML1 agonist	TRPML1 blocker	PINK1 expr mod	ClpP mod	Sfp PPTase inh	Menin-MLL FL inh
- Cc1cc(C)c(Cn2c3ccccc3c3cnn(CC(=O)N4CCCCCC4)c(=O)c32)c(C)c1
    .	-0.6	15.4	1.3%	-3.6%	.	.
- COc1ccc(CN(CC(=O)NCCc2ccccc2)C(=O)CCC(=O)Nc2ccccn2)cc1
    6.8	-0.2	23.0	1.3%	.	-2.5%	.
- Clc1nc(Cl)c2ncn(-c3ccccc3)c2n1
    .	0.5	31.7	-1.2%	-1.2%	.	.
- O=C(NCCc1ccc(Cl)cc1)c1cc(-c2ccccc2)n[nH]1
    .	2.0	-8.5	3.9%	-3.2%	.	.
- CSc1ccccc1NC(=O)C1=COCCO1
    -0.5	-0.6	-6.8	3.5%	0.0%	7.4%	.
- CSCCC(NS(=O)(=O)c1ccc(C)cc1)C(=O)N1CCN(C(c2ccccc2)c2ccccc2)CC1 (stereo not drawn)
    13.3	2.9	-6.6	1.7%	-0.3%	.	.
- CCOC(=O)Cc1csc(NC(=O)C(NC(=O)C2CCCCC2)C(C)C)n1 (stereo not drawn)
    17.7	-0.3	0.2	2.0%	.	15.8%	2.4
- CCn1c(N)c(C(=O)Nc2ccccc2C(=O)OC)sc1=S
    3.8	-0.4	-13.5	3.4%	0.6%	35.5µM*	4.7
- O=C(Cc1ccccc1[N+](=O)[O-])Nc1nccs1
    17.4	1.0	-2.0	-3.1%	.	7.0%	0.3
- CCc1nnc(NC(=O)CCC(=O)N2CCC(Cc3ccccc3)CC2)s1
    10.5	-1.0	11.8	1.7%	-0.4%	4.3%	.
- Cc1cc(=O)[nH]c(SCC(=O)N2CCCc3ccccc32)n1
    9.9	5.8	15.6	-0.6%[38.3 µM]	-0.5%	15.0%	4.4
- O=c1cc(-c2ccc([N+](=O)[O-])cc2)c2cc3c(cc2[nH]1)OCCO3
    -7.3	0.9	24.8	6.3%	.	-2.9%	-5.8
- CCCCOCCCNC(=O)C[C@@H]1C[C@@]2(C(=O)OC)CCCCC=C2N(Cc2ccco2)C1=O
    .	-0.5	.	0.2%	-1.5%	.	.
- Cc1cccc(NC(=O)CN2C(=O)C(c3ccc(F)cc3)=NC23CCCCCC3)c1C
    .	3.7	-17.6	-0.7%	-2.7%	.	.
- COc1ccc(OCC(=O)NNC(=O)c2ccccc2OCc2c(C)noc2C)cc1
    6.1	-0.3	27.1	1.6%	.	.	.
- COc1ccc(Nc2nc3cc(-c4ccsc4)sc3c(=O)n2C)cc1OC
    .	-1.2	.	2.9%	1.1%	.	.
- CC(=O)N1CCN(S(=O)(=O)c2cccc(C(=O)Nc3ccc(C)cn3)c2)CC1
    3.6	0.3	-0.1	2.0%	-5.0%	8.2%	0.0
- C=C1CC2C3CC[C@@]4(OCOC45COCO5)[C@@]3(C)C(O)CC2[C@@]2(C)CCC(=O)C=C12 (stereo partly drawn)
    14.1	0.3	-7.1	26.8%	-1.3%	-3.4%	3.1
- NC(=O)N/N=C/c1ccc(N2CCOCC2)s1
    0.1	0.2	-1.5	-1.2%	-8.3%	79.4µM*	?
- CSc1nc(C)c(CCOCc2ccccc2)c(=O)[nH]1
    -9.9	1.3	29.3	0.7%	0.5%	12.7%	-0.4
- FC(F)(F)c1ccc(-c2nnc(-c3ccccn3)c(-c3ccccn3)n2)nc1
    .	-0.6	7.2	1.0%	-0.1%	-15.9%	0.4
- O=c1c2ccccc2cnn1Cc1ccc(Cl)c(Cl)c1
    4.9	0.1	-14.4	1.8%	.	7.0%	-1.4
- O=S(=O)(NCCn1cccc1)c1ccc2ccccc2c1
    -11.8	-0.1	3.9	2.1%	.	9.4%	-0.8
- CCCN1CCN(CCCNC(=O)c2cnn(-c3ccc(C)cc3)c2-n2cccc2)CC1
    .	0.1	5.4	2.8%	0.5%	.	.
- Cc1ccc(NC(=O)C(OC(=O)c2ccc(NC(N)=O)cc2)c2ccccc2)cc1Cl (stereo not drawn)
    1.8	0.0	-10.5	-2.0%	-10.5%	15.3%	3.9
- CCOC(=O)C1=CN(Cc2cccc(F)c2)S(=O)(=O)NC1c1ccc(Br)cc1F (stereo not drawn)
    .	0.6	-8.7	13.9%	-2.9%	.	.
- Cc1cccc(C(=O)OCN2C(=O)c3ccccc3C2=O)c1[N+](=O)[O-]
    2.4	-0.2	-5.1	1.3%	1.5%	1.5%	.
- COc1ccc(NC(=O)CC2C(=O)N(C)C(=S)N2CCc2ccccc2)cc1 (stereo not drawn)
    4.9	0.9	3.8	?	-2.5%	-11.2%	1.9
- CNC(=O)C1Cc2c(-c3ccccc3Oc3ccccc3)ccnc2O1 (stereo not drawn)
    .	-0.4	?	-0.3%	-5.1%	.	.
- COCCN(Cc1cc2cc3c(cc2nc1Cl)OCO3)C(=O)Nc1ccc(F)cc1
    -21.5	0.8	0.0	.	-0.9%	2.1%	-6.5
- Cc1ccc(NC(=O)C2CCN(c3nc4ccccc4[nH]3)CC2)cc1Cl
    .	1.5	25.4	-1.3%	-2.3%	.	.
- CCOC(=O)c1c(OCC)[nH]c2ccc(O)cc12
    -26.0	0.6	-11.5	-2.8%	1.8%	15.3%	1.8
- COCc1nnc(NS(=O)(=O)c2ccc(NC(C)=O)cc2)s1
    9.4	0.0	-5.7	0.3%	-0.6%	2.3%	3.5
- COc1ccc(N2CCN(C(=O)COC(=O)COc3ccc(C#N)cc3)CC2)cc1
    0.3	0.4	1.4	0.4%	-1.3%	.	.
- CCCn1nc(C(=O)Nc2ccc3nc(C)sc3c2)c2ccccc2c1=O
    25.6	0.9	11.3	-0.6%	-2.0%	-10.6%	7.9
- Cn1ccc2c(-c3ccc(F)cc3F)cc3c(c21)C1CCC3C1 (stereo not drawn)
    .	1.7	27.1	17.4%	5.0%	.	.
- CN(CC(=O)Nc1ccc(Cl)c(C(F)(F)F)c1)C(=O)CCc1nc2ccccc2c(=O)[nH]1
    -8.3	2.1	-22.9	11.6%	2.7%	.	.
- C[C@@H]1CN([C@H](C)CO)C(=O)c2cc(NC(=O)C3CCCCC3)ccc2O[C@@H]1CN(C)Cc1ccncc1
    .	-0.1	22.2	1.8%	-4.2%	.	.
- Cc1ccccc1OC(C)C(=O)Nc1ccc(S(=O)(=O)Nc2nccs2)cc1 (stereo not drawn)
    2.4	-0.6	4.4	-1.0%	.	14.7%	-1.3
- CC(C)OCCCNC(=O)[C@H]1N2C(=O)c3ccccc3C2SC1(C)C (stereo partly drawn)
    7.2	-1.0	-11.0	-2.9%	-3.9%	2.4%	-2.8
- Cc1ccccc1NC(=O)C1CCCN1S(=O)(=O)c1cccc2cccnc12 (stereo not drawn)
    5.0	-0.2	23.4	0.0%	-0.1%	13.5%	-0.8
- Cc1cc(=O)[nH]c2nc3ccccc3n12
    .	0.8	-6.4	-1.2%	3.9%	.	.
- Cc1ccccc1S(=O)(=O)N(C)C[C@H]1OCc2cnnn2CCCC(=O)N([C@H](C)CO)C[C@H]1C
    .	-0.2	-6.9	-0.3%	0.5%	.	.
- CN1CCC(=NOc2ccc([N+](=O)[O-])cc2)CC1
    -25.1	-0.4	-10.4	-0.1%	.	2.8%	-2.0
- COc1cccc(N2CCN(c3cnc4ccccc4n3)CC2)c1
    -12.3	5.3	49.7	1.7%	.	79.4µM*	5.0
- Cn1c(N)c(C(=O)COC(=O)c2ccc(Br)o2)c(=O)n(C)c1=O
    -1.3	-0.3	-4.7	-1.5%	-12.1%	18.7%	-2.8
- CCOCCCn1c(SCC(=O)Nc2ccccc2OC)nc2ccccc2c1=O
    -20.4	3.4	49.9	4.6%	-1.9%	-1.4%	-2.0
- Cc1cccc(NC(=S)NC2CCCCC2)n1
    15.8	0.8	9.5	2.1%	.	50.1µM*	1.3
- CC1CCN(S(=O)(=O)c2ccc3nc(NCc4ccc(N(C)C)cc4)ccc3c2)CC1
    .	-0.3	16.9	2.8%	?	.	.
- O=C(O)C1CCN(C(=O)OCc2ccccc2)CC1
    -4.3	-0.6	-12.4	-0.8%	-0.4%	20.1%	-0.7
- CN(C)/N=C/C=C1\CC/C(=C\c2ccc(F)c(F)c2)C1=O
    .	0.3	-15.7	-0.3%	-1.7%	.	.
- CCc1nc(C)cn1S(=O)(=O)c1ccc(Cl)c(Cl)c1Cl
    -5.5	0.7	-20.0	3.7%	-1.7%	-1.4%	1.1
- Cc1ccc(-c2ccc(/C=N/N3C(=O)C4C5C=CC(CC5)C4C3=O)o2)c([N+](=O)[O-])c1 (stereo not drawn)
    9.9	-0.2	0.9	.	-0.2%	4.4%	1.6
- O=C(c1cnn2c(C(F)(F)F)cc(-c3ccccc3)nc12)N1CCOCC1
    -6.1	0.0	-4.6	0.3%[38.3 µM]	-2.9%	20.4%	0.5
- Cc1ccc(C(=O)Oc2c(S(=O)(=O)c3ccccc3)c(C)nn2-c2ccccc2)cc1
    .	-0.2	2.6	1.2%	0.2%	.	.
- CCOc1ccc2c(c1)C(c1ccc(C)o1)=NNC(c1ccncc1)=N2
    17.0	-1.0	-12.0	5.8%	.	-7.3%	-2.8
- CCOC(=O)Cn1c(S(=O)(=O)Cc2cccc(F)c2)nc(-c2ccccc2)c1-c1ccccc1
    .	1.1	-10.9	1.8%[38.3 µM]	-3.9%	-0.9%	-1.6
- Cc1c(CNCC(C)c2ccccc2)c(C(=O)O)c(C)n1Cc1ccccc1 (stereo not drawn)
    2.2	-0.1	-4.7	-0.7%	-1.2%	-8.8%	-0.6
- Cc1cc(C(=O)NC2CCCc3c2cnn3-c2ccc(C(C)(C)C)cc2)n[nH]1 (stereo not drawn)
    -17.8	1.7	44.8	2.1%	-0.2%	4.2%	-3.2
- COc1ccc(CN2CN(S(=O)(=O)c3ccccc3)c3nc4ccccc4nc32)cc1
    21.9	0.5	10.5	-2.1%	.	4.3%	1.0
